Source: PubChem (National Center for Advancing Translational Sciences (NCATS))
HPGD block: qHTS Assay for Inhibitors of HPGD (15-Hydroxyprostaglandin Dehydrogenase) | 15-hydroxyprostaglandin dehydrogenase [NAD(+)] (Homo sapiens), P15428 | purified HPGD, NADH fluorescence kinetic, PGE2 substrate | Potency, µM, without a hit: top-dose activity change, negative = inhibition, hits mostly inhibitors | actives 4.3% (n = 150,000) | AID 894, 2007; active = well fitted inhibition curve with a large enough effect (not every such curve was filed as active); inconclusive = small, poorly fitted or top-dose-only effect, or another doubt; inactive = no such curve, though single readings can be large or run the other way;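 note: top concentration of the series not given in the record; plate controls included wells without enzyme; inactives centre near -10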
Target sequence (P15428 whole entry, looked up): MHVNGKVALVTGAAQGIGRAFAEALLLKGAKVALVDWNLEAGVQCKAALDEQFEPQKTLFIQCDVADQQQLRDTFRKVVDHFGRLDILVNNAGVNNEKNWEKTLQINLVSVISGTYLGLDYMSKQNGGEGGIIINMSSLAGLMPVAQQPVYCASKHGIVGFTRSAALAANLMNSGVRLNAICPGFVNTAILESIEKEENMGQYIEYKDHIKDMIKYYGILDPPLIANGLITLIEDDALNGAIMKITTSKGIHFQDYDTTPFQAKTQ
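20 nM HPGD preincubated 15 min at room temperature with compound in 50 mM Tris-HCl pH 8, 0.01% Tween 20. Started with 1 mM NAD+ and 30 uM prostaglandin E2; NADH fluorescence (360/450 nm) read 5 times over 30-s intervals, last minus first.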
* hit, by the source's call; ? = inconclusive; & = joins results of further samples; [ ] = remark or other dose. % is set by controls: 0 for no effect and ±100 for the full control effect; potency is the fitted concentration of half-maximal effect. An excerpt (hit frequency here may not be typical).

[1] CC(=O)OCC(=O)[C@@]1(O)[C@H](C)C[C@H]2[C@@H]3CCC4=CC(=O)C=C[C@]4(C)[C@@]3(F)[C@@H](O)C[C@@]21C
  HPGD block: -7%
[2] CC(=O)c1cc2c(cc1NC(=O)CSc1nc3ccccc3o1)OCO2
  HPGD block: -25%
[3] Cc1onc(-c2c(F)cccc2Cl)c1C(=O)OCC(=O)NC(c1ccccc1)c1ccccc1
  HPGD block: -14%
[4] COC(=O)c1ccc(SCC(=O)NC2CCCCC2)c([N+](=O)[O-])c1
  HPGD block: -16%
[5] C=CCN1C(=O)C(O)(CC(=O)c2ccc(OC)cc2OC)c2cc(Br)ccc21 (configuration not stated)
  HPGD block: ?
[6] Cn1c(NC(=O)COc2ccccc2)cc(=O)n(C)c1=O
  HPGD block: -7%
[7] CC(Oc1ccc(Cl)cc1)C(=O)Nc1nccs1 (configuration not stated)
  HPGD block: -14%
[8] NCCCCNS(=O)(=O)c1ccc2c(Cl)cccc2c1
  HPGD block: -10%
[9] c1ccc(CSc2nnc(-c3ccccn3)n2-c2ccccc2)cc1
  HPGD block: -4%
[10] CCCCNC(=O)Nc1ccnn1C1CCCCC1
  HPGD block: -8%
[11] Cc1ccccc1Nc1nnc(SCC(=O)Nc2ncc(C(F)(F)F)cc2Cl)s1
  HPGD block: -3%
[12] COc1ccc(OC)c(/C=C/C(=O)c2ccc(Cl)cc2)c1
  HPGD block: -26%
[13] CCCNC(=O)c1c(NC(=O)C2COc3ccccc3O2)sc2c1CCCC2 (configuration not stated)
  HPGD block: -6%
[14] COc1ccccc1Nc1nc(-c2sc(NC(=O)c3ccco3)nc2C)cs1
  HPGD block: ?
[15] CCOC(=O)c1c(-c2cccs2)csc1NC(=O)c1ccncc1
  HPGD block: ?
[16] Cc1c(Nc2nc3ccccc3nc2NS(=O)(=O)c2cccs2)c(=O)n(-c2ccccc2)n1C
  HPGD block: -14%
[17] CCCN(CCC(=O)Nc1cc(OC)cc(OC)c1)CC1CC1
  HPGD block: -8%
[18] CC(=O)c1sc(NC(=O)C(C)(C)C)nc1C
  HPGD block: 2%
[19] CSc1nccc(-c2cc(Cl)sc2Cl)n1
  HPGD block: -6%
[20] COc1cc(CNc2nc(C)c([N+](=O)[O-])c(C)c2C#N)cc(OC)c1OC
  HPGD block: 2%
[21] Cc1cccn2c1nc(=S)n2C(=O)c1ccco1
  HPGD block: ?
[22] CC(C)(C)c1ccc(S(=O)(=O)N2C=CC(C(F)(F)F)=NCC2)cc1
  HPGD block: -20%
[23] O=C(/C=C/c1ccc(Cl)cc1)Nc1ccc(CN2CCOCC2)cc1
  HPGD block: -4%
[24] CC(C)(C)Nc1oc(-c2ccccc2)nc1-c1ccccc1F
  HPGD block: -11%
[25] Cc1ccnc(Sc2nc3c(c(=O)[nH]c(=O)n3C)n2CCCc2ccccc2)n1
  HPGD block: -2%

Nothing new here: 2 of the compounds above.
[1] CC(=O)OCC(=O)[C@@]1(O)[C@H](C)C[C@H]2[C@@H]3CCC4=CC(=O)C=C[C@]4(C)[C@@]3(F)[C@@H](O)C[C@@]21C
  HPGD block: -7%
[2] CC(=O)c1cc2c(cc1NC(=O)CSc1nc3ccccc3o1)OCO2
  HPGD block: -25%

Five compounds out of the list above, sorted by the number in HPGD block, falling.
[20] COc1cc(CNc2nc(C)c([N+](=O)[O-])c(C)c2C#N)cc(OC)c1OC
  HPGD block: 2%
[13] CCCNC(=O)c1c(NC(=O)C2COc3ccccc3O2)sc2c1CCCC2 (configuration not stated)
  HPGD block: -6%
[8] NCCCCNS(=O)(=O)c1ccc2c(Cl)cccc2c1
  HPGD block: -10%
[7] CC(Oc1ccc(Cl)cc1)C(=O)Nc1nccs1 (configuration not stated)
  HPGD block: -14%
[4] COC(=O)c1ccc(SCC(=O)NC2CCCCC2)c([N+](=O)[O-])c1
  HPGD block: -16%

Later entries.
[26] COC(=O)c1ccc(N=NN2CCCCCC2)cc1
  HPGD block: -15%
[27] CN(C)S(=O)(=O)Oc1cccc(C(=O)Nc2cccc(Cl)c2)c1
  HPGD block: -22%
[28] Cc1sc(NC(=O)CN(Cc2ccc(F)cc2)C(=O)C(C)(C)C)c(C(N)=O)c1C
  HPGD block: -5%
[29] O=C(Cn1c(=O)sc2ccccc21)Nc1ccccc1C(=O)O
  HPGD block: -7%
[30] COC(=O)COC(=O)c1ccc(-n2nnnc2SC)cc1
  HPGD block: -27%
[31] CCN(CC)CCNC(=O)NC1CCCCC1
  HPGD block: -6%
[32] CCn1c(SCC(=O)NCC(=O)Nc2ccc(F)cc2)nnc1-c1cccs1
  HPGD block: -8%
[33] Cc1ccc(NC(=O)COC(=O)/C(=C/c2cccs2)c2cccs2)cc1S(=O)(=O)N(C)C
  HPGD block: -7%
[34] COc1ccc(OC)c(NC2c3ncccc3C(=O)N2Cc2ccco2)c1 (configuration not stated)
  HPGD block: -8%
[35] O=C(Nc1nc2c(s1)CCCC2)c1nn(Cc2ccccc2)c(=O)c2ccccc12
  HPGD block: -9%
[36] CCS(=O)(=O)NCc1cn2c(C)csc2n1
  HPGD block: -10%
[37] CC12COC3(C(=O)Nc4ccc(Cl)cn4)CC1CCC32C (configuration not stated)
  HPGD block: -6%
[38] CSc1nc(C)cc(OCCO)n1
  HPGD block: -14%
[39] Cc1cc(C)cc(N(CC(=O)N2CCN(c3ccccc3)CC2)S(=O)(=O)c2c(C)noc2C)c1
  HPGD block: -9%
[40] COc1cccc(C(=O)NC2CCSC2=O)c1 (configuration not stated)
  HPGD block: -19%
[41] Cc1ccc2nc(-c3ccc(NC(=O)C4CCCO4)cc3)[nH]c2c1 (configuration not stated)
  HPGD block: ?
[42] O=C(CCn1c(=O)c2sccc2n(CC(=O)NCc2ccco2)c1=O)NCc1ccccc1
  HPGD block: -8%
[43] CCOC(=O)c1[nH]c(Cc2[nH]c(C(=O)OCC)c(C)c2CCC(=O)OC)c(CCC(=O)OC)c1C
  HPGD block: -2%
[44] NC(=O)COc1ccc(/C=N/NC(=O)C2CCCN2S(=O)(=O)c2ccc(Cl)cc2)cc1 (configuration not stated)
  HPGD block: -17%
[45] CSc1nc(-c2ccco2)nn1S(C)(=O)=O
  HPGD block: -19%
[46] CCOC(=O)N1CCC(n2c(SCC(=O)NCCC3=CCCCC3)nc3ccccc3c2=O)CC1
  HPGD block: -9%
[47] CCn1ncc(C2=NOC(C(=O)Nc3ccc(C)cc3)C2)c1C (configuration not stated)
  HPGD block: -6%
[48] Cc1cccc(-n2c(O)c(C=NC3CCS(=O)(=O)C3)c3ccccc3c2=O)c1 (configuration not stated)
  HPGD block: -28%
[49] Oc1ccc2ccccc2c1CNn1cnnc1
  HPGD block: -25%
[50] O=C(Nc1ccc2nc(-c3cccnc3)[nH]c2c1)c1ccco1
  HPGD block: -8%

[51] c1coc(CNCc2cccs2)c1
  HPGD block: -2%
[52] Cc1ccc(CC(=O)Nc2ccc(OC(F)F)c(Cl)c2)cc1C
  HPGD block: -13%
[53] Cc1cccc(Nc2nc(NCC3CCCO3)nc(N)c2[N+](=O)[O-])c1 (configuration not stated)
  HPGD block: -1%
[54] CC1(C)C2CC[C@@]1(C)C(=O)C2
  HPGD block: -2%
[55] N#C/C(=C/c1ccco1)c1nc2ccccc2s1
  HPGD block: ?
[56] N#CC(CC(=O)O)=C(c1ccccc1)c1ccccc1
  HPGD block: -25%
[57] Cc1ccc(SCCNC(=O)/C=C/c2cccc([N+](=O)[O-])c2)cc1
  HPGD block: -5%
[58] Cc1ccc(C2OCC3(CO2)COC(c2ccc(C)cc2)OC3)cc1 (configuration not stated)
  HPGD block: -8%
[59] Cc1ccc(C(=O)N/C(=C\c2ccc(-c3ccc([N+](=O)[O-])cc3)o2)C(=O)NC2CCS(=O)(=O)C2)cc1 (configuration not stated)
  HPGD block: -6%
[60] CCCCNC(=O)CCSc1nc2nc(C)cc(C)n2n1
  HPGD block: -7%
[61] CC(=O)Nc1nnc(SCC(=O)N2CCN(Cc3ccccc3)CC2)s1
  HPGD block: -6%
[62] CCOc1cc(CNc2ccc(Br)cc2)cc(Br)c1OCC(=O)NC(C)(C)C
  HPGD block: -3%
[63] CS(=O)(=O)N(CC(=O)N1CCCC1)c1cccc(Cl)c1Cl
  HPGD block: -3%
[64] Cc1c(NC(=O)c2cccc(F)c2)c(=O)n(-c2ccccc2)n1C
  HPGD block: -9%
[65] COc1ccc(N2C(=O)C3CCCN3C2c2ccccc2)cc1 (configuration not stated)
  HPGD block: -6%
[66] Cn1nc(OC(=O)Nc2cccc(Cl)c2)cc1C(F)(F)F
  HPGD block: -10%
[67] S=C(NCCc1ccccc1)N/N=C/c1cccc(Cl)c1Cl
  HPGD block: -12%
[68] c1ccc(N2CCN(c3ccccc3)C2c2ccncc2)cc1
  HPGD block: -9%
[69] CC(C)c1ccc(NC(=O)CSc2nc3c(c(=O)[nH]2)CCC3)cc1
  HPGD block: -19%
[70] CCOC(=O)C1=C([Si](C)(C)C)c2ccccc2N(S(=O)(=O)C(F)(F)F)C1C(=O)OCC (configuration not stated)
  HPGD block: -26%
[71] O=C(COc1ncnc2ccccc12)N1CCN(S(=O)(=O)c2ccccc2)CC1
  HPGD block: -8%
[72] Cc1cc(C(=O)Nc2ccccn2)cs1
  HPGD block: -12%
[73] CN(C)CCC=C1c2ccccc2C=Cc2ccccc21
  HPGD block: -5%&3%&-9%&1%
[74] COc1ccc(OC)c(NC(=O)C2CCN(c3nc(C)cc(C)n3)CC2)c1
  HPGD block: -13%
[75] CSc1ccc(-c2c(C#N)c(N)nc3c2CCCC3)cc1
  HPGD block: 164%[activator]

[76] Nn1cnnc1N/N=C\c1ccc(-c2ccccc2[N+](=O)[O-])o1
  HPGD block: -22%
[77] CC1=C(C(N)=O)C(c2ccccc2)n2nc(-c3cccs3)nc2N1 (configuration not stated)
  HPGD block: -24%
[78] CN(C)/N=C/C=C1\CC/C(=C\c2ccc(Br)cc2)C1=O
  HPGD block: -13%
[79] O=C(O)CCC(=O)NCc1ccc2[nH]c3c(c2c1)CCCC3
  HPGD block: ?
[80] CCOC(=O)c1c(NC(=O)CSc2ncccn2)sc2c1CCN(Cc1ccccc1)C2
  HPGD block: -17%
[81] CC1CN(S(=O)(=O)c2ccc(C(=O)Nc3ccc(S(=O)(=O)Nc4ncccn4)cc3)cc2)CC(C)O1 (configuration not stated)
  HPGD block: 0%
[82] CC(=O)c1cc2c(cc1NC(=O)c1c(-c3ccccc3)noc1C)OCO2
  HPGD block: 18%
[83] O=C1c2ccccc2C(=O)N1Cc1ccco1
  HPGD block: -6%
[84] CCCCNS(=O)(=O)c1ccc2nc(SCC(=O)Nc3ccccc3)[nH]c2c1
  HPGD block: -22%
[85] O=Cc1cccn1Cc1ccccc1[N+](=O)[O-]
  HPGD block: -4%
[86] CCOC(=O)[C@H]1NN=C(C(=O)OC)[C@@H]1c1ccccc1
  HPGD block: -9%
[87] CCOC(=O)c1ccc(N2C(=O)C(C)=C(C)C2=O)cc1
  HPGD block: -4%
[88] CC(C)N(Cc1ccccc1)C(=O)c1cnc2n(c1=O)CCS2
  HPGD block: -17%
[89] CCOc1ccccc1-n1c(=O)c2ccccc2c2ccccc2c1=O
  HPGD block: 1%
[90] Cc1ccc(-c2nc3ccccc3n3c(C)nnc23)cc1
  HPGD block: ?
[91] COCCn1c(=NC(=O)c2cc(-c3cccs3)nc3ccccc23)sc2cc(S(N)(=O)=O)ccc21
  HPGD block: ?
[92] COc1ccc(N2CCN(C(=O)CN(c3ccccc3)S(C)(=O)=O)CC2)cc1
  HPGD block: 5%
[93] O=c1oc2ccccc2cc1-c1ccc(O)cc1
  HPGD block: ?
[94] O=C(O)CNc1nc(Cl)ccc1[N+](=O)[O-]
  HPGD block: -5%
[95] CC(=O)NC(CCS(C)(=O)=O)C(=O)N1CCc2ccccc21 (configuration not stated)
  HPGD block: -8%
[96] CCN1CCCC1CNC(=O)c1ccc(-n2c(=O)c(=O)[nH]c3ccccc32)cc1 (configuration not stated)
  HPGD block: -5%
[97] O=C(CSc1ccccc1)NCCSCc1ccccc1
  HPGD block: -27%
[98] CCCCc1cc(=O)oc2c(CN(C)C)c(O)c(Cl)cc12
  HPGD block: ?
[99] CC(NCCO)C(=O)C12CC3CC(CC(C3)C1)C2 (configuration not stated)
  HPGD block: -9%
[100] COCC(=O)N1CCC[C@@]2(CCN(Cc3nccs3)C2)C1
  HPGD block: -10%

[101] CC(C)CCNC(=O)CN(C)S(=O)(=O)c1cccc2nsnc12
  HPGD block: -11%
[102] CCOc1cc(S(=O)(=O)NCc2ccccn2)c(C)cc1C
  HPGD block: -5%
[103] O=C(NC(=S)Nc1cc(C(F)(F)F)ccc1N1CCOCC1)c1ccc(-c2cccc(Cl)c2)o1
  HPGD block: -6%
[104] COC(=O)[C@@]1(Cc2ccc(OC)cc2)[C@H]2c3cc(C(=O)N(C)C)n(Cc4ccc(O)c(OC)c4)c3C[C@H]2CN1C(=O)c1ccccc1
  HPGD block: -9%
[105] COCCNC(=O)c1ccccc1NC(=O)c1ccc(OC)c(OC)c1
  HPGD block: -11%

Structures above that have a CF3 group:
[11] Cc1ccccc1Nc1nnc(SCC(=O)Nc2ncc(C(F)(F)F)cc2Cl)s1
  HPGD block: -3%
[22] CC(C)(C)c1ccc(S(=O)(=O)N2C=CC(C(F)(F)F)=NCC2)cc1
  HPGD block: -20%
[66] Cn1nc(OC(=O)Nc2cccc(Cl)c2)cc1C(F)(F)F
  HPGD block: -10%
[70] CCOC(=O)C1=C([Si](C)(C)C)c2ccccc2N(S(=O)(=O)C(F)(F)F)C1C(=O)OCC (configuration not stated)
  HPGD block: -26%
[103] O=C(NC(=S)Nc1cc(C(F)(F)F)ccc1N1CCOCC1)c1ccc(-c2cccc(Cl)c2)o1
  HPGD block: -6%
